Vif TR-FRET = inhibitors of Vif binding to APOBEC3G peptide, primary screen, biochemical, TR-FRET, GST-Vif 1-94, biotin-A3G peptide, dose response retest (AID 1117319); inhibition, %; hits with a dose series show IC50 in µM; TR-FRET GST-Vif / biotin-A3G peptide binding; higher % means a stronger effect; test concentration not given here; strong numbers were not always called active; actives 0.57% (n = 260,000);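 active = above the screen mean plus three standard deviations and confirmed in dose response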;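 note: Vif residues 1-94 fused to GST binding biotinylated APOBEC3G peptide 110-148; 0% = full assay without inhibitor and 100% = GST in place of GST-Vif; retest series ran down from 100 µM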
ALR H2O2 inh = blocks human ALR sulfhydryl oxidase activity | actives 3.8% (n = 290,000) | purified ALR, DTT oxidation, H2O2 HRP-luminol luminescence | P55789 | inhibition, % (test concentration not listed) | AID 485317;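 active = mean and each replicate at 75% or more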;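 note: stock transfer was 7.5 nL into about 7.5 µL; 0% = neutral wells and 100% = wells with inactivated enzyme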
Target sequence (P55789 whole entry, looked up): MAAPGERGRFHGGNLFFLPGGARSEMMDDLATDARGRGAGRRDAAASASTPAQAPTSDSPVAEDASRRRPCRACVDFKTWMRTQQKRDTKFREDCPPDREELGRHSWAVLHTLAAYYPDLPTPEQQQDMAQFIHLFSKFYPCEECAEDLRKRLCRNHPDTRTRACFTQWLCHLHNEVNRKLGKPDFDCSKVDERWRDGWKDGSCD
MLL AF4-AF9 inh = inhibitors of human MLL-AF4/AF9 interaction. P42568. AlphaScreen, biotin-AF4 peptide binding to FLAG-AF9. inhibition, % at 10 µM. actives 0.47% (n = 350,000);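 active = every replicate reaching a set inhibition limit, whatever the replicate mean, cut at about 25% in these data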;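 note: 0% = plate neutral control median and 100% = total signal loss; the record names both 10 and 1 µM as test concentration; the first replicate is given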
Target sequence (P42568 whole entry, looked up): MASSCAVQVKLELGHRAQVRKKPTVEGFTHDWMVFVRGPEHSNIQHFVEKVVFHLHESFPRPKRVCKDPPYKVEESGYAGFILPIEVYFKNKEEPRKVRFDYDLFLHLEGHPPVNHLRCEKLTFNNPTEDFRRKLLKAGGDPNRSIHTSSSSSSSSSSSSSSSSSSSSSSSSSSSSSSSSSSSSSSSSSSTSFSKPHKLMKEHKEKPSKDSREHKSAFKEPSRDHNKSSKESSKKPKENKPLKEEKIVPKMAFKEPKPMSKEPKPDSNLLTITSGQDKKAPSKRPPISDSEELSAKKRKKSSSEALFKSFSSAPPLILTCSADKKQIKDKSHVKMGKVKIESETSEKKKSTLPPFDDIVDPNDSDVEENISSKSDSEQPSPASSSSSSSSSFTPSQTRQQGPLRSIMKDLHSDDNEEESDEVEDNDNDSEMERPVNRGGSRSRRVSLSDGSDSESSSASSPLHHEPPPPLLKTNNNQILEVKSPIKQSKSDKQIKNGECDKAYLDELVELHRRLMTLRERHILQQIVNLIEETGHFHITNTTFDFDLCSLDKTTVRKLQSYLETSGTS
HNF4A DNA FP = change in binding of human HNF4 alpha to DNA. P41235. activity change, % at 10 µM. actives 0.3% (n = 360,000). HNF4a-FITC DNA binding, fluorescence polarization, 1 h; in the data active = activity change above about 30%, passing the limit was not always enough;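 note: controls were the assay level and a saturating level of protein; the project sought stronger binding though the title names inhibitors; some compounds called inactive have numbers as strong as hits; positive values seem to mean higher polarization but the record does not say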
FGF22 binding = binders of recombinant human FGF22 by thermal shift | SYPRO orange fluorescence; percent of sucrose octasulfate shift, DMSO zero | actives 1.5% (n = 340,000) | AID 651658 | calls only at 9.99 µM | Q9HCT0;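 active = melting point raised past a set limit in the mean and every replicate; three in four hits are not shown here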
Target sequence (Q9HCT0 whole entry, looked up): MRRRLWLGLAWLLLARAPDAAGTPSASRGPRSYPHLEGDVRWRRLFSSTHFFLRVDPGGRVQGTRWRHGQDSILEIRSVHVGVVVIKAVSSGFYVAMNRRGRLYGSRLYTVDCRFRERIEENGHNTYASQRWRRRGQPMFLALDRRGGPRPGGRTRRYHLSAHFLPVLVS
E coli growth = blocks Escherichia coli growth; OD600, 23 h; stronger effect = lower value; OD600 absorbance (test concentration not listed); actives 0.21% (n = 330,000);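 active = OD600 absorbance below the run mean of sample wells minus 3.6 SD, in any replicate, cut at about 0.56 in these data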;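 note: stock transfer was 300 nL into about 60 µL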
rRNA inh HTS = inhibitors of bacterial rRNA selective over humanized ribosomes | E. coli WT GFP vs humanized-ribosome RFP mutants, fluorescence, 24 h; stronger effect = lower value; DMSO median 0, no signal -100 | GFP signal change (wild-type ribosome), % (test concentration not listed) | actives 1.6% (n = 350,000) | AID 720706;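 active = significant combined selectivity score with lowered wild-type GFP, culture density cut under 30%, mutant RFP and density less affected; inactive = any of these conditions unmet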; note: one replicate is shown; some compounds called inactive have numbers as strong as hits
rRNA inh HTS OD600 = further read-out of rRNA inh HTS, marked with its call; OD600 change, %; measured here: OD600 growth;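 optical density of the mix in the first replicate; 0 = DMSO median and -100 = no signal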
rRNA inh HTS RFP = also measured in rRNA inh HTS; calls as there; RFP signal change, %; measured here: RFP humanized mutant strains;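 first replicate; 0 = DMSO median and -100 = no signal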
Active calls of the source: *; i = inactive; nt = no result given; & = joins results of further samples. An excerpt, so the mix of outcomes need not match the whole.

canonical_smiles,rRNA inh HTS,FGF22 binding,E coli growth,Vif TR-FRET,HNF4A DNA FP,MLL AF4-AF9 inh,rRNA inh HTS OD600,rRNA inh HTS RFP,ALR H2O2 inh
CC1CN(C(=O)CCC(=O)NCc2ccccc2)c2cc(Cl)ccc2O1 (centres undefined),2,i,0.8,nt,1.6,0.3,2,0.5,-5
CCOc1ccccc1NC(=S)Nc1ncccc1C,-16,i,0.69,15%,-3.0,-0.5,-16,-8.2,-3
CCOC(=O)c1c(NC(=O)CN2CCCc3ccccc32)sc(C)c1C,nt,nt,0.73,20%,3.5,nt,nt,nt,-2
Cc1nc(CNS(=O)(=O)c2cc(F)ccc2F)cs1,nt,nt,0.7,6%,-1.3,nt,nt,nt,-10
CC(C)(C)C(=O)Nc1ccc(C(=O)NNC(=O)c2ccccc2)cc1,21,i,0.69,29%,4.2,-2.5,21,2.3,-3
COC(=O)C1(Cc2ccccc2)NC(c2ccccc2C)C2C(=O)N(c3ccc4c(c3)OCO4)C(=O)C21 (centres undefined),nt,nt,0.68,-9%,0.8,nt,nt,nt,-1
C/C(=N/NS(=O)(=O)c1ccc(Cl)cc1)c1cccc(O)c1,nt,nt,nt,4%,-1.1,nt,nt,nt,42
CCc1cc2c(SCC(=O)c3ccc(C)cc3)ncnc2s1,nt,nt,0.67,-3%,6.8,nt,nt,nt,-7
CNC(=O)CC1C(=O)N(C)C(=S)N1NC(=O)c1ccc(Cl)cc1 (centres undefined),nt,nt,0.77,2%,-0.7,nt,nt,nt,6
C[C@H](CO)N1C[C@H](C)[C@H](CN(C)CC2CCOCC2)Oc2ncc(C#C[C@@H](C)O)cc2C1=O,0,i,nt,nt,nt,-4.3,-1,-3.3,nt
O=C(Nc1cccc(O)c1)C1CC(c2cccc(Br)c2)=NO1 (centres undefined),-9,nt,0.6,nt,1.1,-0.3,-13,-1.8,19
O=C1N/C(=N\N=C\c2ccco2)SC1Cc1ccc(F)cc1 (centres undefined),8,i,nt,-2%,-1.0,-0.2,1,-0.9,-7
CCNC(=O)C[C@H]1CC[C@@H]2[C@H](COC[C@H](O)CN2Cc2ccccc2F)O1,-2,i,nt,nt,nt,2.3,1,-3.0,nt
Cc1ccc(CNC(=O)C2CCCN(S(=O)(=O)c3c(C)[nH]c(=O)[nH]c3=O)C2)cc1 (centres undefined),17,i,0.66,18%,0.0,1.9,7,-5.9,-8
CCCCN(C(=O)COC(=O)CSc1ccc([N+](=O)[O-])cc1)c1c(N)n(CCC)c(=O)[nH]c1=O,7,i,0.69,3%,1.2,-2.4,6,-0.5,-5
O=c1c2cn[nH]c2nc(SCc2cc(=O)n3cc(Br)ccc3n2)n1-c1ccc(Br)cc1,-7,i,0.68,11%,4.3,4.6,-6,1.2,4
COc1cc(C2c3cc4c(cc3OC(N3CCOCC3)C2C)OCO4)cc(OC)c1OC(C)=O (centres undefined),-11,i,nt,2%,-1.6,6.6,-2,3.0,nt
CCc1ccc(S(=O)(=O)/N=C2\C=C(Nc3cccc(C(=O)O)c3)C(=O)c3ccccc32)cc1,12,i,nt,nt,-2.1,9.5,-19,7.7,69
COc1ccc(CN(C)C[C@H]2Oc3ccc(NC(=O)Cc4cn(C)c5ccccc45)cc3C(=O)N([C@@H](C)CO)C[C@H]2C)cc1,2,i,nt,nt,nt,12,0,7.4,nt
COc1ccc(NC(=O)COC(=O)COc2ccc(Br)cc2)cc1,14,i,0.71,33%,4.8,0.4,15,1.7,0
O=C(NCC1CCOCC1)C1Cc2c(-c3ccccc3Oc3ccccc3)ccnc2O1 (centres undefined),-6,i,nt,nt,2.6,0.6,-14,-4.4,nt
Cc1ccc(NC(=O)c2ccc(N3CCOCC3)c([N+](=O)[O-])c2)cc1S(=O)(=O)N1CCOCC1,nt,nt,0.7,26%,-3.0,nt,nt,nt,5
CCCCC1=CC2=CC(=O)C(C)(OC(=O)CC)C(=O)C2=CN1Cc1ccco1 (centres undefined),nt,nt,0.65,nt,-5.0,nt,nt,nt,-7
CCCNC(=O)N1CCC2(CC1)CN(C(=O)c1ccncc1)[C@@H](CO)c1[nH]c3cc(OC)ccc3c12,-1,i,nt,nt,nt,-0.3,-2,-4.6,nt
Cc1cc(C)cc(NC(=O)CCN2CCCC2)c1,13,i,0.69,nt,-2.2,0.9,1,0.2,-4
O=C(N[C@@H](Cc1c[nH]c2ccccc12)C(=O)O)C1CCN(S(=O)(=O)c2cccs2)CC1,2,i,0.66,3%,0.1,-2.2,12,1.5,nt
O=S(=O)(c1ccc(F)cc1)N1CCN(c2ccc(F)cc2)CC1,1,i,0.7,nt,-2.5,-0.1,2,-2.1,3
O=C(COC(=O)C1CCN(S(=O)(=O)c2ccc3c(c2)OCCO3)CC1)NC1CCS(=O)(=O)C1 (centres undefined),4,i,0.68,-5%,2.0,-0.1,6,-1.7,-5
C[C@H](O)C#Cc1cnc2c(c1)C(=O)N([C@H](C)CO)C[C@H](C)[C@H](CN(C)C(=O)CC1CC1)O2,-1,i,nt,nt,nt,-1.4,1,1.5,nt
COC(=O)c1cccc(NC(=O)c2ccc(S(=O)(=O)N3CCN(C)CC3)cc2)c1,nt,nt,0.63,2%,2.8,nt,nt,nt,-6
OC(c1ccc2ccccc2c1)c1ncc(-c2ccc(C(F)(F)F)cc2)[nH]1 (centres undefined),-19,i,nt,nt,3.1,0.5,-53,19,nt
c1ccc(-c2nnc3n2CCCC3)cc1,nt,nt,0.71,-4%,0.7,nt,nt,nt,2
CCCn1c2ccccc2c2nnc(SCC(=O)Nc3ncccn3)nc21,nt,nt,0.74,1%,1.6,nt,nt,nt,3
O=C(c1ccccn1)N1CCCC(N2CCN(c3cccc(C(F)(F)F)c3)CC2)C1 (centres undefined),-3,i,0.71,nt,1.5,1.0,4,3.2,4
CCCCN(Cc1nc2ccccc2c(=O)[nH]1)C(=O)CN1C(=O)NC2(CCCCC2)C1=O,-2,i,0.71,nt,-1.4,-4.7,12,-1.8,2
O=C(NC(=S)NC1CCS(=O)(=O)C1)c1cccc([N+](=O)[O-])c1 (centres undefined),4,i,0.69,nt,-3.7,-2.0,8,-1.9,0
Cc1ccn2c(NCc3ccccc3)c(-c3cccs3)nc2c1,-37,nt,0.64,-5%,0.8,1.3,-36,1.4,34
COc1cccc(S(=O)(=O)N2C[C@H](O)COC[C@H]3O[C@H](CC(=O)Nc4ccccc4)CC[C@@H]32)c1,0,i,nt,nt,nt,-2.4,-5,-1.7,nt
COC(=O)[C@@H]1[C@@H](CO)[C@@H]2Cn3c(ccc(-c4ccc(OC)cc4)c3=O)[C@@H]2N1C,-3,i,nt,nt,nt,-1.0,-1,1.2,nt
CN(C)C(=O)c1nnsc1Sc1ccc(Cl)cc1,3,i,0.69,-7%,-2.8,-1.2,-2,-1.8,-28
O=C(COC(=O)c1ccc[nH]c1=O)NC1CCCCCC1,9,i,0.69,nt,0.9,-1.8,7,-6.5,-7
O=S1(=O)C[C@H](N2CC[C@@H](O)C2)[C@@H](COCc2ccccc2)N1,18,i,nt,nt,-0.7,-1.4,15,7.4,nt
C[C@H](CO)N1C[C@H](C)[C@@H](CN(C)S(=O)(=O)c2ccc(F)cc2)Oc2ccc(NC(=O)C3CCCCC3)cc2C1=O,-1&-4,i,nt,nt,1.4,-0.9&4.9,-3&-6,-0.3&-8.6,-7
COc1ccc(NC(=O)N(C)C[C@@H]2Oc3ccc(NS(C)(=O)=O)cc3C(=O)N([C@@H](C)CO)C[C@H]2C)cc1,-3,i,nt,nt,nt,-2.2,-1,-1.3,nt
O=C1c2ccc(Br)cc2C(=O)N1c1ccc(Cc2ccncc2)cc1,-11,i,0.71,2%,1.4,0.1,-20,-2.4,nt
COc1ccc(OC)c(C2=Nn3c(nnc3-c3cccc(OC(C)C)c3)SC2)c1,nt,nt,0.66,-7%,2.2,nt,nt,nt,-3
Cc1cc(C(=O)Nc2cccc3c2O[C@H](CN(C)C(=O)Nc2ccc4c(c2)OCO4)[C@@H](C)CN([C@@H](C)CO)C3=O)n(C)n1,-2,i,nt,nt,nt,-3.2,2,-3.8,nt
COc1ccc(NS(=O)(=O)c2cccc3cccnc23)cc1,nt,nt,0.68,28%,0.3,nt,nt,nt,-8
CCN(c1ccccc1)S(=O)(=O)c1ccc(Cl)c(C(=O)NCC2CCCO2)c1 (centres undefined),nt,nt,0.67,6%,11,-6.5,nt,nt,1
CS(=O)(=O)N(CC(=O)N1CCCC1)c1cc(Cl)c(Cl)cc1Cl,3,i,0.68,2%,-2.7,7.8,-4,-12,-38
O=c1oc2cc(Br)ccc2n1CSC1=NCCS1,nt,nt,0.74,-5%,0.4,nt,nt,nt,99*
COCC(=O)Nc1ccc2c(c1)OC[C@H](C)N(Cc1ccccn1)C[C@@H](C)[C@@H](OC)CN(C)C2=O,1,i,nt,nt,nt,-4.6,1,-0.9,nt
O=C(CCNC(=O)N1CC(=O)Nc2ccccc21)NCc1ccccc1Cl,0,i,nt,2%,-3.2,-4.7,-2,-0.3,nt
Cc1cc(C)n2nc(SCC(=O)N(C)c3ccccc3)nc2n1,nt,nt,0.72,7%,-0.8,nt,nt,nt,0
CCC(=O)N(C)C[C@@H]1Oc2cc(-c3cccc(C#N)c3)ccc2S(=O)(=O)N([C@@H](C)CO)C[C@H]1C,-3,i,nt,nt,nt,-2.9,-5,2.4,nt
Cc1cc(Cl)ccc1NC(=O)CCC(=O)N/N=C/c1cc([N+](=O)[O-])ccc1O,-7,i,nt,nt,1.5,2.4,-6,-3.2,-3
O=C(CCN1CCN(CCO)CC1)Nc1ccc(OCc2ccccc2)cc1,nt,nt,0.7,0%,-0.4,nt,nt,nt,-14
CN1OC[C@@H]2CN(S(=O)(=O)c3cc(Cl)cc(Cl)c3)[C@H](c3ccc(-c4ccc(C#N)cc4)cc3)C[C@@H]21,8,i,nt,nt,0.4,-3.4,13,0.1,nt
N#CCCNS(=O)(=O)c1ccc(C(=O)OCC2CCCCC2)cc1,-2,i,0.63,nt,-2.2,1.1,1,-1.8,0
CCc1ccc([C@@H]2C[C@H]3[C@@H](CN2S(=O)(=O)c2ccc(C)cc2)C(=O)C[C@@H](c2ccc(C)cc2)N3S(=O)(=O)c2ccc(C)cc2)cc1,15,i,nt,0%,4.9,4.4,17,-0.1,nt

Additional compounds follow.
canonical_smiles,rRNA inh HTS,FGF22 binding,E coli growth,Vif TR-FRET,HNF4A DNA FP,MLL AF4-AF9 inh,rRNA inh HTS OD600,rRNA inh HTS RFP,ALR H2O2 inh
CCc1nc2c(OCCOC)cccn2c1N(C)C(=O)c1ccc(C)cc1,14,i,nt,nt,-1.4,0.5,14,4.1,nt
Nc1nnn(CC(=O)N/N=C/c2ccc(Cl)cc2Cl)n1,9,i,nt,-4%,-1.9,-3.4,8,1.0,-9
CCOC(=O)c1ccc(N[C@@H]2CCN3C(=O)c4ccccc4[C@@H]3C[C@H]2O)cc1,-6,i,0.68,4%,-4.5,-0.2,-13,-0.9,nt
C[C@@H]1CCCCO[C@@H](CN(C)Cc2ccc(Cl)c(Cl)c2)[C@@H](C)CN([C@H](C)CO)C(=O)c2cc(N(C)C)ccc2O1,-5,i,nt,nt,nt,48*,-9,1.7,nt
COc1ccc(-c2nn(-c3ccccc3)cc2/C=C/C(=O)OCC(=O)Nc2cccc(C#N)c2)cc1,nt,nt,0.73,21%,-0.1,nt,nt,nt,-7

From PubChem
